# CtBP-E1A blk = inhibitors of CtBP/E1A interaction | AlphaScreen GST-E1A/His-CtBP binding, 1536-well; hits give low values; control for the full effect not named in the record | activity change, % (concentration not given with the values) | 0.49% of 340,000 active; in the data active means activity change below about -65%; inconclusive means about -30% to -65%; inactive means above about -30%; further: on the % scale 0 is the no-effect control and ±100 the full control effect
#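 Protein mix (5X: 125 nM each GST-E1A, His-CtBP) was incubated with pinned compound 2 h at 37 deg C in dark, in 50 mM Tris pH 8.0 buffer with 300 mM NaCl. Glutathione donor and nickel acceptor beads followed; AlphaScreen signal read after 1 h.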
# Six1-Eya2 blk = blocks human Six1 binding to Eya2. AID 651725. AlphaScreen GST-Six1/His-Eya2 binding, biochemical; hits give low values; control for the full effect not named in the record. Q15475+O00167. 0.56% of 360,000 active. activity change, % (test concentration not listed); in the data active = activity change below about -65%; inconclusive = about -30% to -65%; inactive = above about -30%; further: on the % scale 0 is the no-effect control and ±100 the full control effect; compound concentration not given in the record
# Target sequence (O00167 whole entry, looked up): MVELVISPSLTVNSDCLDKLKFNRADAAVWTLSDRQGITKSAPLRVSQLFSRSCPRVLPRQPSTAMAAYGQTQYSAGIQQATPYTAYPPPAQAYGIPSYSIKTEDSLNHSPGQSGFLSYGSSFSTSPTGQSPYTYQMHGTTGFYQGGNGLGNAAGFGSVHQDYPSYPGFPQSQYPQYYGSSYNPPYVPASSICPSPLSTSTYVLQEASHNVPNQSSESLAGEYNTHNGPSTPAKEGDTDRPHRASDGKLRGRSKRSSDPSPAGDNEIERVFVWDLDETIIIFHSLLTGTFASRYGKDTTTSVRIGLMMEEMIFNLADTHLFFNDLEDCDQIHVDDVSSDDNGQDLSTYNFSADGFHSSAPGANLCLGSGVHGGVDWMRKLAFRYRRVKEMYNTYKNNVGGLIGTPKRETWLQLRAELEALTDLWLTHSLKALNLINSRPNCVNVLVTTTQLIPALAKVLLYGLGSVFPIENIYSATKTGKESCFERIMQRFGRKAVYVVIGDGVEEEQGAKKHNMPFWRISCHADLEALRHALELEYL
# Target sequence (Q15475 whole entry, looked up): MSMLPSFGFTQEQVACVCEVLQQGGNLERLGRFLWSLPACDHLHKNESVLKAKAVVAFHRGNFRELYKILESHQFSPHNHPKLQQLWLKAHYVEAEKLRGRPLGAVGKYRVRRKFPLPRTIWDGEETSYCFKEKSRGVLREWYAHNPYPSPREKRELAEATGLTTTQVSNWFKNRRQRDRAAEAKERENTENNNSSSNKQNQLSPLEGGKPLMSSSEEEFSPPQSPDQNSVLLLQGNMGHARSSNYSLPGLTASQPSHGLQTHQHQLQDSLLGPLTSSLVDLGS
#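 AlphaScreen luminescence read after one hour at 37 °C in darkness. Pin-transferred compounds met GST-Six1 and His-Eya2 protein (5X stock 250 nM/500 nM) plus glutathione donor and Ni-chelate acceptor beads (5X, 50 ug/mL).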
# PINK1 expr mod = modulators of PINK1 expression | Potency, µM (series often up to 76.6 µM), without a hit: at the highest dose activation (PINK1 increase), actives largely listed as activators | AID 624263 | 0.2% of 410,000 active | PINK1 immunofluorescence, high-content cytometry, 24 h; active = well fitted activation curve with a large enough effect; inconclusive = small, poorly fitted or top-dose-only effect; inactive = flat fitted curve, though single readings scatter; cell line not stated here;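 further: potency means the concentration at half of the fitted maximal effect; % of control where 0% means no effect; nearly all actives have a fitted effect of over 65% in size; a mitochondrial uncoupler was the plate control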
#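 PINK1 protein, normally rapidly degraded, was detected by immunofluorescence after 24 hour compound treatment of a stable cell line. Titration data (5 concentrations) came from laser-scanning cytometry, with CCCP-treated wells as controls.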
# TRPML1 inh = inhibitors of human TRPML1 channel. 0.02% of 390,000 active. activity change, negative = inhibition, % (concentration not given with the values). TRPML1-inducible cells, Ca2+ dye fluorescence, FDSS; hits give low values; inhibition of EC80 agonist-evoked calcium signal; in the data active means activity change below about -50%; inconclusive means about -30% to -50%; inactive means above about -30%;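 further: stimulus is agonist 54-4 at its EC80 concentration; on the % scale 0 is the no-effect control and ±100 the full control effect; compound concentration not given in the record; the text of the record puts the active cut at -80%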
#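 Calcium fluorescence in TRPML1-DL cells induced overnight with Tet: a 110 s read after compound pin addition, then a 110 s antagonist read after challenge with 54-4 at 4 uM final (EC80).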
# TRPML1 agonist = agonists of human TRPML1 channel; Q9GZU1; TRPML1-expressing cells, Ca2+ dye fluorescence, FDSS; host cell line not named in the record; reference of the full effect not given here; activation, % (test concentration not listed); 0.12% of 410,000 active; in the data active = activation above about 50%; inconclusive = about 30% to 50%; inactive = below about 30%; further: 0% is about no effect; the text of the record puts the active cut at 80%
#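 Tetracycline-induced TRPML1-DL cells are seeded and incubated overnight before loading with a no-wash Ca2+ dye and quencher. Agonist activity is taken from the 110 s fluorescence read following compound pin-transfer on an FDSS, before EC80 54-4 challenge.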
# D2 ag = human D2 receptor agonism in beta-arrestin assay; 0.084% of 360,000 active; DiscoveRx PathHunter D2 beta-arrestin, luminescence, 90 min; 100% = 57 uM dopamine signal; activation, % (test concentration not listed); P14416; AID 624465; in the data active = activation above about 40%; inconclusive = about 15% to 40%; inactive = below about 15%; further: compound concentration not given in the record; the text of the record calls up to 30% inactive
#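 DiscoveRx PathHunter D2 beta-arrestin cells (2,100/well) attached overnight, then compound-stimulated 90 min at 37 C in HBSS/10 mM HEPES/0.1% Tween-20 buffer; beta-galactosidase complementation read by luminescence after 1 h at ambient temperature. Dopamine 57 uM final (EC100) as control.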
# * = called active by the depositor; ? = inconclusive; . = no result given; [ ] = remark or other dose.
# Order of results – TRPML1 inh	D2 ag	PINK1 expr mod	Six1-Eya2 blk	TRPML1 agonist	CtBP-E1A blk
CCOC(=O)c1c(NC(=O)CN2C(=O)NC3(CCCCC3)C2=O)sc(C)c1-c1ccc(C)cc1
 : -1	-1.2	11%	4	4.0	-1
O=C(CCNC(=O)N1CC(=O)Nc2ccccc21)Nc1cccc(Cl)c1
 : 7	-4.1	0.7%	1	-0.8	10
O=C(Nc1cccc2ncccc12)c1ccccc1[N+](=O)[O-]
 : -3	0.6	-1.3%	-4	0.2	-8
O=C(NC1C2CC3CC(C2)CC1C3)c1ccc(Br)o1 (stereo not given)
 : 32	-7.2	4.2%	4	0.8	1
CN1CCN(c2ccc(Cl)cc2NC(=O)c2ccc([N+](=O)[O-])cc2)CC1
 : -13	-0.7	0.4%	2	0.4	1
Cc1noc(NC(=O)c2cccc(C(F)(F)F)c2)c1Cl
 : -5	7.2	1.0%	23	0.0	-9
Cc1nc(=O)c(-c2ccccc2)c(C)n1-c1ccc(S(N)(=O)=O)cc1
 : 16	0.2	-0.9%	9	-0.4	2
C[C@@H]1COc2cc(N3CCC[C@@H]3CO)ccc2S(=O)(=O)N1
 : .	.	1.2%	4	0.1	-2
CCCCc1ccc(NC(=S)N2CCCC2)cc1
 : 8	-0.1	6.0%	2	2.0	5
O=C(O)c1c(C(=O)O)c(-c2ccc(Cl)c(Cl)c2)n2c1CSC2
 : .	-5.4	0.4%	-5	.	-1
COc1cc(NC(=O)CCCNC(=O)Cn2cnc3sc4c(c3c2=O)CCCC4)cc(OC)c1OC
 : -8	0.1	1.8%	6	-0.3	-12
CN(C)CCNC(=O)c1onc(CSc2ccncc2)c1C(=O)NCCN(C)C
 : 3	-3.2	-0.5%	1	-0.5	0
CCC1(c2ccc(F)cc2)NC(=O)N(CC(=O)Nc2cccnc2Cl)C1=O (stereo not given)
 : -9	-4.1	-0.4%	-5	3.3	0
CCNC(=O)NC(=O)C(C)N1C(=O)NC(c2ccccc2)(c2ccccc2)C1=O (stereo not given)
 : -11	-2.8	-1.1%	3	1.2	0
CC(C)c1cccc(C(C)C)c1OCCCCCN1CCOCC1
 : 29	-3.8	11%	-1	0.1	.
Cc1ccccc1NC(=O)CN1C(=O)S/C(=C\c2cccn2-c2cccc(C(=O)O)c2)C1=O
 : 5	-1.3	14%	-11	0.7	7
O=C(Nc1ccc(OC(F)(F)F)cc1)c1cc(S(=O)(=O)N2CCCCC2)ccc1N1CCOCC1
 : -2	-4.1	0.7%	2	-0.6	3
Cc1ccc(Nc2nc(NCC3CCCO3)nc(N)c2[N+](=O)[O-])cc1C (stereo not given)
 : 9	-5.6	-0.5%	-7	-0.6	23
O=C(N/C(=C/c1ccc(Cl)cc1)C(=O)N1CCCCC1)c1ccco1
 : 0	-0.9	6.0%	11	0.7	11
Cn1cnnc1SCC(=O)Nc1ccc2nc(SCc3ccccc3)sc2c1
 : 12	0.2	1.5%	-7	-0.4	1
CC(=O)Nc1ccc(S(=O)(=O)N(C)CC(=O)OCC(=O)Nc2cccnc2Cl)cc1
 : 14	3.4	0.7%	5	0.6	-3
COC(=O)c1cc(NC(=O)c2cccnc2)ccc1N1CCOCC1
 : -7	-0.3	0.8%	2	0.0	8
Cc1ccc(-c2nnc(CCC(=O)N(C)Cc3nccs3)o2)s1
 : -2	4.8	-3.4%	-3	1.4	1
COc1ccc(C(=O)NC2CCCc3ccccc32)cc1Br (stereo not given)
 : 3	-4.3	4.2%	-9	2.6	2
COc1ccc(CN2CCNC(=O)C2CC(=O)O)c(OC)c1 (stereo not given)
 : -13	2.2	-0.3%	-2	-0.5	3
COc1ccc(Cl)cc1C(=O)n1cnc2ccccc21
 : 26	1.4	1.1%	-6	0.0	-9
Cn1c(=O)n(-c2ccc3c(c2)OCO3)c2nc(-c3ccc(Cl)cc3)nc(C(N)=O)c21
 : 21	.	1.1%	.	-0.5	.
CCN(CC(=O)Nc1ccccc1C(F)(F)F)C(=O)CN1C(=O)NC(C)(c2ccccc2)C1=O (stereo not given)
 : 14	-0.7	-1.9%	5	-0.4	9
COc1ccc(N2CCN(S(=O)(=O)CCNC(=O)Cc3ccc(-c4ccccc4)cc3)CC2)cc1
 : 4	.	-0.3%	.	2.8	.
CCc1ccc(NC(=O)CC2C(=O)N(c3ccc(Cl)cc3)C(=O)N2Cc2ccco2)cc1 (stereo not given)
 : 18	.	-0.1%	.	0.5	.

# Brought forward from above: 3 entries; new compounds follow.
# Order of results – TRPML1 inh	D2 ag	PINK1 expr mod	Six1-Eya2 blk	TRPML1 agonist	CtBP-E1A blk
CCN(CC(=O)Nc1ccccc1C(F)(F)F)C(=O)CN1C(=O)NC(C)(c2ccccc2)C1=O (stereo not given)
 : 14	-0.7	-1.9%	5	-0.4	9
COc1ccc(N2CCN(S(=O)(=O)CCNC(=O)Cc3ccc(-c4ccccc4)cc3)CC2)cc1
 : 4	.	-0.3%	.	2.8	.
CCc1ccc(NC(=O)CC2C(=O)N(c3ccc(Cl)cc3)C(=O)N2Cc2ccco2)cc1 (stereo not given)
 : 18	.	-0.1%	.	0.5	.
COc1ccc(CC(=O)Nc2nc3c(s2)CC(C)CC3)cc1 (stereo not given)
 : 3	.	3.3%	.	-0.7	.
O=C(Nn1cnnc1)c1cc(Cl)ccc1Cl
 : .	1.5	0.3%	-2	.	.
COc1ccc(NC(=O)CN(C)C(=O)CCC(=O)c2ccc(C)cc2)cc1
 : -5	-1.5	0.3%	4	-0.4	3
O=C(NCCSc1ccccc1)c1ccccc1
 : 11	-3.1	0.4%	6	-0.1	7
CN(C(=O)COC(=O)c1ccccc1C(=O)N(C)c1ccccc1)c1ccccc1
 : 3	-4.6	-0.6%	-4	-0.1	-1
CCOC(=O)C1=NOC2(C1)C(=O)Nc1c(Cl)cccc12 (stereo not given)
 : .	.	1.7%	0	-0.3	-1
COC(=O)COc1ccc2cccc(-n3cnnn3)c2c1
 : 3	-3.3	1.4%	8	0.2	4
O=C(NC1CCCN(CCc2ccccc2)C1)c1c[nH]c2ccccc12 (stereo not given)
 : -2	-6.0	-0.9%	-1	0.1	-8
O=C(O)c1cncc(C#Cc2ccccc2)c1
 : -7	1.0	9.9%	6	0.4	2
Cc1ccc(-c2cc(C(=O)N3CCC(C)CC3)c3ccccc3n2)cc1
 : 10	0.9	1.8%	2	-0.1	5
Cc1c(C)n(Cc2ccccc2)c2ccc(C(=O)N3CCN(c4ccccc4F)CC3)cc12
 : 16	.	-0.3%	.	0.6	.
N/C(=N\S(=O)(=O)c1cc(C(F)(F)F)cc(C(F)(F)F)c1)c1ccc(Cl)cc1
 : 11	-2.2	?	4	3.5	-17
N#CSC(c1ccccc1)c1nc2ccccc2[nH]c1=O (stereo not given)
 : 6	0.3	-2.9%	0	-1.1	0
CN1CCN(c2ncc3c(n2)CCN(Cc2ccc(Br)s2)C3)CC1
 : 0	.	-0.1%	.	1.4	.
CN(c1ccccc1)S(=O)(=O)c1ccc(Cl)c(C(=O)OCC(=O)NC2CCS(=O)(=O)C2)c1 (stereo not given)
 : -10	-0.7	-0.8%	2	-0.4	4
COC(=O)c1c(NC(=O)C(=O)N2CCOCC2)sc2c1CCCC2
 : 8	-1.5	-0.8%	-6	-0.5	3
N#Cc1c(N)[nH]c(C(=O)c2ccccc2)c1-c1ccc(Cl)cc1
 : .	.	5.0%	-19	-0.7	0
Cc1ccc(C)c2[nH]c(=O)c(CCNC(=O)c3ccc(S(=O)(=O)N4CCCC4)cc3)cc12
 : 18	-2.9	4.3%	7	0.3	2
COC(=O)[C@@]1(Cc2ccc(OC)cc2)[C@H]2c3cc(C(=O)N4CCCC4)n(Cc4cc(C)n(C)n4)c3C[C@H]2CN1C(=O)c1ccccc1
 : .	.	0.8%	-7	2.5	-12
Cc1cc(=O)[nH]c(SCc2nnc(-c3ccccc3)o2)n1
 : 6	0.4	1.3%	-4	-0.6	3
Cc1cc(NC(=O)C(C)SCC(=O)N(C)Cc2ccccc2F)no1 (stereo not given)
 : 6	1.4	0.2%	1	2.4	0
CCOC(=O)Cn1c(=O)oc2cc(S(=O)(=O)N3CCN(c4ccccc4F)CC3)ccc21
 : 0	.	1.3%	.	3.1	.
Cc1ccc2sc(NNC(=O)C3=COCCO3)nc2c1C
 : 7	0.1	3.2%	-1	1.1	-1
COc1ccc(-c2noc(CN(C(=O)c3cccs3)C(C)C)n2)cc1
 : -10	-2.4	?	0	4.8	50
Cc1cc(C)c2c(=O)[nH]c(SCC(=O)NCc3ccccc3)nc2n1
 : 1	-2.9	.	-7	-0.4	4
COCCNC(=O)CN1C(=O)CC(C)(C)S(=O)(=O)c2ccccc21
 : -14	-1.2	0.6%	0	0.1	7
O=C(NCc1ccc(F)cc1)c1c2c(nc3ccccc13)CCC2
 : 11	-0.4	2.1%	0	-0.3	-2
CN1CCN(S(=O)(=O)c2ccc(Nc3ccc(F)cc3)nc2)CC1
 : -2	-0.8	-1.3%	-2	0.6	4
Cc1cc(C)cc(NC(=O)CCC(=O)N2Cc3ccccc3Oc3ncccc32)c1
 : 8	.	2.4%	.	2.6	.
COc1cccc(C2c3[nH]c4ccccc4c3C[C@H]3C(=O)N(C4CCN(Cc5ccccc5)CC4)CC(=O)N23)c1 (stereo not given in full)
 : .	-6.3	1.7%	-16	.	-1
CCOC(=O)CSc1ccc(C(=O)NCCN2CCOCC2)cc1[N+](=O)[O-]
 : -26	8.1	2.8%	-3	0.6	6
O=C(NN1CCCCC1)c1ccccc1
 : -6	-0.3	0.7%	6	0.3	19
CCOc1ccc(C(=O)CCc2nc3ccccc3s2)cc1
 : 49	5.1	-3.7%[38.3 µM]	3	1.2	8
Cc1ccc(C(=O)Nc2cccc(C(=O)N/N=C/c3ccc(O)cc3)c2)cc1
 : 13	-3.3	7.7%	?	2.0	?
O=C(Nc1cc(C(F)(F)F)cc(C(F)(F)F)c1)Nc1cnn(-c2ccc([N+](=O)[O-])cc2)c1C(F)(F)F
 : 8	-2.0	?	-4	-0.8	9
CCN(C(=O)COC(=O)c1ccccc1NCCO)c1cccc2ccccc12
 : -18	0.7	-2.3%	4	1.8	-14
Cc1ccc(-n2c(=O)c3c(C)c(C(=O)N(C)C)sc3n(Cc3ccccc3C)c2=O)cc1C
 : -14	.	0.6%	.	0.9	.
COc1cc2c(cc1OC)C(c1ccccc1[N+](=O)[O-])N(C(C)=O)CC2 (stereo not given)
 : -3	5.8	-0.4%	1	-0.4	5
CCOc1ccc(C(O)(CCC(C)C)C(CN2CCOCC2)c2ccccc2)cc1 (stereo not given)
 : 15	-3.1	?	0	0.8	-5
COC(=O)Cn1cc(/C=C/c2cc[n+](C)cc2)c2ccccc21
 : -7	-0.4	7.9%	10	0.0	1
CC(=O)Nc1cccc(-c2nc3ccccc3[nH]2)c1
 : 43	5.4	1.8%	2	-0.4	-19
Cc1cc(Br)ccc1NC(=O)c1sc2ncn(Cc3ccccc3Cl)c(=O)c2c1C
 : 7	.	2.7%	.	2.1	.

# Assay outcomes from PubChem.
